YB-1 expr inh: inhibitors of YB-1 gene expression, primary screen, cell-based, fluorescence. delta delta Cp (YB-1 minus CDIP) (concentration not given with the values). hit rate 0.37% among 30,000. U2OS, qRT-PCR YB-1 vs CDIP delta delta Cp, 16 h; stronger effect = higher value; zero = DMSO, each unit about twofold;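 active = delta delta Cp rounded down to an integer at or above 3, about 3 SD of DMSO wells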;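 also: higher means less YB-1 transcript or more CDIP transcript relative to DMSO; stock transfer was 100 nL into about 100 µL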
Starred values were filed as active, the others as inactive. Only part of the results is shown; rates above refer to the full screens.

SMILES	YB-1 expr inh
O=C(O)CCCCCCC(=O)N/N=C/c1ccccc1Cl	0.094
C[C@H](CO)N1C[C@H](C)[C@H](CN(C)S(=O)(=O)c2cccc(F)c2)Oc2ncc(-c3cccc(C(F)(F)F)c3)cc2C1=O	0.074
COCCOC(=O)N1C(=O)[C@@]2(c3cc(C#CCCO)ccc31)[C@H](C(=O)NC[C@H](O)c1ccccc1)[C@H]1C(=O)O[C@H](c3ccccc3)[C@H](c3ccccc3)N1[C@@H]2c1ccc(O)cc1	0.47
[N-]=[N+]=Nc1ccccc1C[C@]1(C(=O)N2CCCCC2)N=C(c2ccc(OCCCO)cc2)O[C@H]1c1ccccc1	-0.14
C[C@H](O)[C@H](O)[C@@H](O)[C@@H](O)/C=N/NC(=O)c1ccccn1	-0.023
O=C(O)CCCCCC(=O)N/N=C/c1cccs1	0.031
O=C1O[C@H](c2ccccc2)[C@H](c2ccccc2)N2[C@H]1[C@@H](C(=O)Nc1nc3ccccc3s1)[C@]1(C(=O)Nc3ccc(C#CC4(O)CCCCCC4)cc31)[C@H]2c1ccccc1OCCO	0.026
CC(C)NC(=O)N(C)C[C@H]1OCc2cnnn2CCCC(=O)N([C@H](C)CO)C[C@H]1C	-0.046
COCCOC(=O)N1C(=O)[C@@]2(c3cc(C#Cc4ccc(OC)cc4)ccc31)[C@H](c1ccc(O)cc1)N1[C@H](c3ccccc3)[C@H](c3ccccc3)OC(=O)[C@H]1[C@@H]2C(=O)N1CCCCCCC1	-0.031
COc1ccc([Si](C)(C)[C@@H]2[C@@H](CCn3cc(CCO)nn3)O[C@]3(C(=O)N(Cc4ccc(N5CCC5=O)cc4)c4ccccc43)[C@H]2C)cc1	0.24
C[C@H](CO)N1C[C@H](C)[C@H](CN(C)S(=O)(=O)c2ccccc2)Oc2ncc(C#Cc3cccc(F)c3)cc2C1=O	-0.014
COC(=O)C(CC#Cc1ccc2c(c1)[C@]1(C(=O)N2)[C@H](c2ccc(OCCO)cc2)N2[C@H](c3ccccc3)[C@H](c3ccccc3)OC(=O)[C@H]2[C@@H]1C(=O)N1CCCCCCC1)C(=O)OC	0.048
O=C(CCCCC(=O)N/N=C/c1ccc2ccccc2c1)NO	-0.34
C=C(C)[C@@H]1CC=C(/C=N/NC(=O)c2ccccc2O)CC1	-0.36
C[C@@H]1CN([C@H](C)CO)C(=O)CCCn2nncc2CO[C@@H]1CN(C)Cc1cccc2c1OCCCO2	0.28
C=CCNC(=O)[C@H]1[C@@H]2C(=O)O[C@@H](c3ccccc3)[C@@H](c3ccccc3)N2[C@@H](c2ccc(OCCO)cc2)[C@]12C(=O)Nc1ccc(C#CCC(C(=O)OC)C(=O)OC)cc12	-0.063
O=C(c1ccccc1)N1Cc2ccccc2C[C@@]2(N=C(c3ccc(OCCCO)cc3)O[C@H]2c2ccccc2)C1=O	-0.1
CC(C)CNC(=O)[C@@]1(C)c2ccccc2C(=O)N(Cc2ccccc2)[C@H]1c1ccc(CO)cc1	0.22
C[C@H](CO)N1C[C@H](C)[C@H](CN(C)C(=O)c2ccc3ccn(C)c3c2)OCc2cnnn2CCCC1=O	0.11
NC(=O)[C@H]1[C@@H]2C(=O)O[C@@H](c3ccccc3)[C@@H](c3ccccc3)N2[C@@H](c2ccc(OCCO)cc2)[C@]12C(=O)Nc1ccc(C#CC3(O)CCCCCC3)cc12	-0.21
COc1cccc(-c2cnc3c(c2)C(=O)N([C@H](C)CO)C[C@H](C)[C@H](CN(C)C(=O)Nc2ccccc2)O3)c1	-0.019
COC(=O)CCCCCCC(=O)N/N=C/c1ccc(O)cc1Br	-0.091
O=S(=O)(N[C@@H]1CCCN(Cc2cccc(OCCO)c2)C1)c1ccc(Cl)c(Cl)c1	0.031
Cc1ccc(S(=O)(=O)N(C)C[C@@H]2Oc3ncc(-c4cccc(C(F)(F)F)c4)cc3C(=O)N([C@H](C)CO)C[C@@H]2C)cc1	-0.31
COC(=O)CCCCCCC(=O)N/N=C/c1cc(Br)ccc1O	-0.036

Further entries
SMILES	YB-1 expr inh
C[C@H]1CN([C@@H](C)CO)C(=O)CCCn2nncc2CO[C@H]1CN(C)S(=O)(=O)c1cn(C)cn1	-0.28
COc1cc(Br)c(/C=N/NC(=O)CCCCCCC(=O)Nc2ccccc2O)cc1OC	0.3
COc1cc(/C=C/C=N/NC(=O)c2ccccn2)ccc1O	-0.42
O=C(N/N=C/c1ccccc1[N+](=O)[O-])c1ccccn1	0.51
C[C@H](CO)N1C[C@H](C)[C@H](CN(C)S(=O)(=O)c2ccc(-c3ccccc3)cc2)OCc2cn(nn2)CCCC1=O	-0.54
O=C(NN=C1CCCCCC1)c1ccccc1O	-0.2
COC(=O)C(CC#Cc1ccc2c(c1)[C@]1(C(=O)N2)[C@H](c2ccc(O)cc2)N2[C@H](c3ccccc3)[C@H](c3ccccc3)OC(=O)[C@H]2[C@@H]1C(=O)NC[C@H](O)c1ccccc1)C(=O)OC	0.052
COc1ccc(C#Cc2ccc3c(c2)[C@]2(C(=O)N3)[C@H](c3ccc(O)cc3)N3[C@H](c4ccccc4)[C@H](c4ccccc4)OC(=O)[C@H]3[C@@H]2C(=O)N2CCc3cc(OC)c(OC)cc3C2)cc1	-0.33
C[C@H](CO)N1C[C@H](C)[C@@H](CN(C)C(=O)NC2CCCC2)OCc2cn(nn2)CCCC1=O	0.0026
O=C(CCCCCCC(=O)Nc1ccccc1O)N/N=C/c1ccoc1	-0.27
C[C@@H]1CN([C@H](C)CO)C(=O)CCCn2cc(nn2)CO[C@@H]1CN(C)S(=O)(=O)c1ccccc1F	0.24
O=C(CCCCCCC(=O)Nc1ccccc1O)N/N=C/c1ccc(I)cc1	-0.087
C[C@@H]1CN([C@H](C)CO)C(=O)CCCn2nncc2CO[C@@H]1CN(C)Cc1cccc(C(F)(F)F)c1	0.0014
O=C(NCc1ccccc1)[C@]1(CCS(=O)(=O)c2ccccc2)N=C(c2ccc(OCCCO)cc2)O[C@@H]1c1ccccc1	-0.062
CC(C)(C)OC(=O)Nc1cccc(/C=N/NC(=O)c2cccc(C(=O)NO)c2)c1	0.095
C[C@H](CO)N1C[C@H](C)[C@@H](CN(C)C(=O)Nc2ccc(N3CCCCC3)cc2)OCc2cnnn2CCCC1=O	0.2
COC(=O)C(CC#Cc1ccc2c(c1)[C@]1(C(=O)N2)[C@H](c2ccccc2OCCO)N2[C@H](c3ccccc3)[C@H](c3ccccc3)OC(=O)[C@H]2[C@@H]1C(=O)Nc1nc2ccccc2s1)C(=O)OC	-0.38
COc1ccc(C#Cc2ccc3c(c2)[C@]2(C(=O)N3)[C@H](C(=O)N3CCCCCCC3)[C@H]3C(=O)O[C@H](c4ccccc4)[C@H](c4ccccc4)N3[C@@H]2c2ccccc2OCCO)cc1	-0.021
C/C=C/[C@H](CC(=O)N(CCO)Cc1ccccc1)[Si](C)(C)c1ccc(OC)cc1	-0.12
C[C@@H]1CN([C@@H](C)CO)C(=O)CCCn2nncc2CO[C@H]1CN(C)C(=O)Nc1ccc(-c2cccs2)cc1	-0.43
O=C(N/N=C/c1ccc(S(=O)(=O)O)o1)c1ccccn1	-0.52
COc1ccc(NC(=O)N(C)C[C@@H]2OCc3cnnn3CCCC(=O)N([C@H](C)CO)C[C@@H]2C)cc1	0.00078
C[C@@H]1CN([C@H](C)CO)C(=O)CCCn2nncc2CO[C@H]1CN(C)Cc1ccc2cccnc2c1	-0.088
C[C@@H]1CN([C@@H](C)CO)C(=O)CCCn2nncc2CO[C@@H]1CN(C)Cc1ccncc1	-0.064
C[C@H](CO)N1C[C@H](C)[C@H](CN(C)S(C)(=O)=O)Oc2ncc(-c3ccc(F)cc3)cc2C1=O	-0.19

Further compounds follow.
SMILES	YB-1 expr inh
C=CCNC(=O)[C@@H]1[C@H]2C(=O)O[C@H](c3ccccc3)[C@H](c3ccccc3)N2[C@H](c2ccc(O)cc2)[C@@]12C(=O)Nc1ccc(C#CCCO)cc12	-0.013
Cc1noc(C)c1NC(=O)N(C)C[C@@H]1Oc2ncc(C#Cc3ccc(C(F)(F)F)cc3)cc2C(=O)N([C@H](C)CO)C[C@@H]1C	-0.27
COc1ccc(NC(=O)O[C@H](c2ccc(OC)c(O)c2)[C@@H](CCO)OC)cc1	0.19
C[C@@H]1CN([C@H](C)CO)C(=O)CCCn2cc(nn2)CO[C@@H]1CN(C)S(=O)(=O)c1cccc(C#N)c1	0.14
Cc1ccc(S(=O)(=O)N(C)C[C@@H]2Oc3ncc(-c4ccc(F)cc4)cc3C(=O)N([C@H](C)CO)C[C@@H]2C)cc1	-0.28
O=C(Nc1ccccc1)C1=C[C@@H](c2ccc3c(c2)Cc2ccccc2-3)C[C@@H](OCCCCO)O1	-0.048
COCCOC(=O)N1C(=O)[C@@]2(c3cc(C#CCC(C(=O)OC)C(=O)OC)ccc31)[C@H](c1ccc(OCCO)cc1)N1[C@H](c3ccccc3)[C@H](c3ccccc3)OC(=O)[C@H]1[C@@H]2C(N)=O	-0.59
C[C@H](CO)N1C[C@H](C)[C@H](CN(C)Cc2ccc3cccnc3c2)OCc2cn(nn2)CCCC1=O	-0.048
COCCOC(=O)N1C(=O)[C@@]2(c3ccccc31)[C@H](C(N)=O)[C@H]1C(=O)O[C@H](c3ccccc3)[C@H](c3ccccc3)N1[C@@H]2c1ccc(O)cc1	0.17
CCCCCCC/C=N/NC(=O)CCCCCCC(=O)OC	-0.56
CNC[C@@H]1OCc2cnnn2CCCC(=O)N([C@H](C)CO)C[C@@H]1C	0.03
C[C@@H]1CN([C@H](C)CO)C(=O)CCCn2cc(nn2)CO[C@H]1CN(C)S(=O)(=O)c1ccccc1F	0.27
CC(C)COC(=O)N(C)C[C@@H]1OCc2cnnn2CCCC(=O)N([C@H](C)CO)C[C@H]1C	0.46
COc1ccc(S(=O)(=O)N(C)C[C@@H]2OCc3cn(nn3)CCCC(=O)N([C@@H](C)CO)C[C@@H]2C)cc1	0.31
O=C(CCCCCCC(=O)Nc1ccccc1O)N/N=C/c1cccnc1Cl	-0.14
O=C(N/N=C/c1ccc(Br)cc1)c1ccccc1O	-0.067
COCCOC(=O)N1C(=O)[C@@]2(c3cc(C#CC4=CCCCC4)ccc31)[C@H](c1ccccc1OCCO)N1[C@H](c3ccccc3)[C@H](c3ccccc3)OC(=O)[C@H]1[C@@H]2C(=O)NC[C@H](O)c1ccccc1	-0.21
O=C(C1=C[C@H](c2csc3ccccc23)C[C@H](OCc2ccc(CO)cc2)O1)N1CCCCC1	0.11
C[C@H](CO)N1C[C@H](C)[C@@H](CN(C)C(=O)Nc2ccc3c(c2)OCO3)OCc2cn(nn2)CCCC1=O	-0.35
Cc1cccc(CN(C)C[C@H]2OCc3cnnn3CCCC(=O)N([C@@H](C)CO)C[C@@H]2C)c1	-0.63
O=C(NO)c1cccc(C(=O)N/N=C/c2ccoc2)c1	-0.13
O=C(NO)c1cccc(C(=O)N/N=C/c2ccc(I)cc2)c1	-0.25
O=C(NO)c1cccc(C(=O)N/N=C/c2ccc(F)c(Oc3ccccc3)c2)c1	-0.15
COCCOC(=O)N1C(=O)[C@@]2(c3cc(C#CCCO)ccc31)[C@H](C(=O)NC[C@H](O)c1ccccc1)[C@H]1C(=O)O[C@H](c3ccccc3)[C@H](c3ccccc3)N1[C@@H]2c1ccccc1OCCO	0.2
O=C(N/N=C/c1ccc2ccccc2c1)c1ccccc1O	-0.48
CCCC(O)C#Cc1cnc2c(c1)C(=O)N([C@H](C)CO)C[C@H](C)[C@H](CN(C)Cc1ccncc1)O2 (stereo partly drawn)	-0.27
CC(C)NC(=O)N(C)C[C@H]1OCc2cnnn2CCCC(=O)N([C@H](C)CO)C[C@@H]1C	-0.011
C=CCNC(=O)[C@@H]1[C@H]2C(=O)O[C@H](c3ccccc3)[C@H](c3ccccc3)N2[C@H](c2ccccc2OCCO)[C@@]12C(=O)N(C(=O)OCCOC)c1ccc(C#CCC(C(=O)OC)C(=O)OC)cc12	0.53
C[C@H](CO)N1C[C@H](C)[C@@H](CN(C)Cc2ccc(Cl)c(Cl)c2)OCc2cnnn2CCCC1=O	0.12

Compound activity deposited in PubChem BioAssay by Broad Institute.
